Assay outcomes: PubChem BioAssay, several laboratories
RGS16-Gao HTS: modulators of RGS16 binding to Galphao, primary screen, biochemical, human proteins, multiplexed bead flow cytometry; AID 1441, 2008; binding response (% of control), % at 10 µM; bead-based flow cytometry RGS16-Galphao binding, fluorescence; actives lie on both sides; Regulator of G-protein signaling 16 (Homo sapiens) + Guanine nucleotide-binding protein …; hit rate 0.38% among 220,000;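 active = below 25% or above 175%, edge rows of some plates excepted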;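 note: Galphao activated by GDP with aluminum fluoride before binding; 100% = wells without compound and 0% = beads without RGS; some results beyond the cut were filed as inactive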
Target sequence (O15492 whole entry, looked up): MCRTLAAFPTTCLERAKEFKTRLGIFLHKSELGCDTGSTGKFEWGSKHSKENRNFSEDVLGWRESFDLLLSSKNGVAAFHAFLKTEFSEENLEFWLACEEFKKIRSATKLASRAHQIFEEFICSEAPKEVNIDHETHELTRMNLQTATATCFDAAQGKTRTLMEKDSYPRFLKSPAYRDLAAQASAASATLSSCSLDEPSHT
Target sequence (P09471 whole entry, looked up): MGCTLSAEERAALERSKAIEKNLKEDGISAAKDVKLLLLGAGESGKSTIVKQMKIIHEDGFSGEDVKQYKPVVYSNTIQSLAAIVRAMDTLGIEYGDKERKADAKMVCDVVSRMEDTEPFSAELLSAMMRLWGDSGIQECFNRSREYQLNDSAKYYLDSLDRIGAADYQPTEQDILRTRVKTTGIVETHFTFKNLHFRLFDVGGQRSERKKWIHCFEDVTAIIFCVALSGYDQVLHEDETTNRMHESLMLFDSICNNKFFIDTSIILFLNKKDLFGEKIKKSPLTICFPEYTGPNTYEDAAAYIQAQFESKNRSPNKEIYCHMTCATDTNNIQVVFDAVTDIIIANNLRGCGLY
HSV replic up: enhancers of HSV replication in host cells, fold increase, host cell viability. HSV replication augmentation in cells. maximum fold increase. hit rate 0.005% among 220,000. AID 1956, 2009;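 active = peak rise of 1.5-fold or more in the series; tested in PC3 cells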;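 note: first round at 10 µM; read as green reporter fluorescence; hits show the peak of a series up to 25 µM; 1 = signal of infected wells without compound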
HSV replic up primary fold: also measured in HSV replic up; calls as there; fold increase; compound at 10 µM; measured here: primary screen fold increase 10 uM; tested in PC3 cells;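 GFP signal in the first replicate; 1 = infected wells without compound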
* marks the source's active call; other numbers are inactive results; i = inactive; · = no result given.

Cc1ccc(N2C(=O)NC(=O)/C(=C/c3ccoc3)C2=O)cc1
  RGS16-Gao HTS: 86 | HSV replic up: · | HSV replic up primary fold: ·
C[C@]12CCC(=O)C[C@@H]1CC[C@@H]1[C@@H]2CC[C@@]2(C)[C@H]1CC[C@]2(C)O
  RGS16-Gao HTS: 93 | HSV replic up: · | HSV replic up primary fold: ·
Cc1ccc(N2C(=O)NC(=O)/C(=C\C=C\c3ccco3)C2=O)cc1
  RGS16-Gao HTS: 95 | HSV replic up: · | HSV replic up primary fold: ·
C=C1C(=O)O[C@H]2C[C@@H](C)[C@@H]3C=CC(=O)[C@@]3(C)C[C@H]12
  RGS16-Gao HTS: 99 | HSV replic up: · | HSV replic up primary fold: ·
Cc1nnc2n1-c1ccc(Cl)cc1C(c1ccccc1)=NC2
  RGS16-Gao HTS: 98 | HSV replic up: · | HSV replic up primary fold: ·
C[C@]12CC(=CO)C(=O)C[C@@H]1CC[C@@H]1[C@@H]2CC[C@@]2(C)[C@H]1CC[C@]2(C)O
  RGS16-Gao HTS: 100 | HSV replic up: · | HSV replic up primary fold: ·
CCN1C[C@]2(CO)CC[C@H](OC)[C@@]34C5C[C@H]6[C@H](OC)C5[C@](O)(C[C@H]6OC)[C@@](O)(C(OC)C23)[C@@H]14 (some centres not stated)
  RGS16-Gao HTS: · | HSV replic up: i | HSV replic up primary fold: 0.86
CN1CC[C@@]2(C)c3cc(O)ccc3N(C)C2O1 (some centres not stated)
  RGS16-Gao HTS: · | HSV replic up: i | HSV replic up primary fold: 0.79
COC(=O)C1=C(c2cc3ccccc3s2)C[C@@H]2CC[C@H]1N2C(=O)N1CCC(C)CC1
  RGS16-Gao HTS: · | HSV replic up: i | HSV replic up primary fold: 0.91
CCCN1CCC[C@@H]2Cc3[nH]ncc3C[C@H]21
  RGS16-Gao HTS: · | HSV replic up: i | HSV replic up primary fold: 0.87
C[C@H](N)CN1CCc2ccc(Br)cc21
  RGS16-Gao HTS: · | HSV replic up: i | HSV replic up primary fold: 0.87
COC(=O)C1=C(c2ccc(S(C)(=O)=O)cc2)C[C@@H]2CC[C@H]1N2C(=O)N1CCC(O)CC1
  RGS16-Gao HTS: · | HSV replic up: i | HSV replic up primary fold: 0.83
CN1CC[C@@H](c2ccc(F)cc2)[C@H](COc2ccc3c(c2)OCO3)C1
  RGS16-Gao HTS: · | HSV replic up: i | HSV replic up primary fold: 0.65
COC(=O)C1=C(c2cc3ccccc3o2)C[C@@H]2CC[C@H]1N2C(=O)N1CCCC1
  RGS16-Gao HTS: · | HSV replic up: i | HSV replic up primary fold: 0.81
COC(=O)C1=C(c2cc3ccccc3s2)C[C@@H]2CC[C@H]1N2C(=O)NCCS(C)=O (some centres not stated)
  RGS16-Gao HTS: · | HSV replic up: i | HSV replic up primary fold: 0.83

CCN1C[C@@]2(COC)C3[C@@H](OC)[C@H]4[C@@H]1[C@@]3(C1C[C@H]3[C@H](OC(C)=O)C1[C@]4(OC(C)=O)C[C@H]3OC)[C@@H](OC)C[C@H]2OC(C)=O (some centres not stated)
  RGS16-Gao HTS: · | HSV replic up: i | HSV replic up primary fold: 1.2
COC(=O)C1=C(c2cc3ccccc3s2)C[C@@H]2CC[C@H]1N2C(=O)N1CCC(O)CC1
  RGS16-Gao HTS: · | HSV replic up: i | HSV replic up primary fold: 0.94
CCCN1CCc2cc(O)cc3c2[C@H]1Cc1ccc(O)c(O)c1-3
  RGS16-Gao HTS: · | HSV replic up: i | HSV replic up primary fold: 0.77
COc1ccc2[nH]cc(C(=O)CN(C)C)c2c1
  RGS16-Gao HTS: · | HSV replic up: i | HSV replic up primary fold: 0.94
COC(=O)C1=C(c2ccc(S(C)(=O)=O)cc2)C[C@@H]2CC[C@H]1N2C(=O)NCCS(C)=O (some centres not stated)
  RGS16-Gao HTS: · | HSV replic up: i | HSV replic up primary fold: 1.2
CN1C(=O)C2C[C@@]3(Br)c4ccccc4N(OOSc4ccccc4)[C@H]3N2C(=O)[C@@H]1Cc1ccccc1 (some centres not stated)
  RGS16-Gao HTS: · | HSV replic up: i | HSV replic up primary fold: 0.76
COc1ccc(C2(c3cccc(O)c3OC)CCN(C(C)=O)CC2)cc1O
  RGS16-Gao HTS: · | HSV replic up: i | HSV replic up primary fold: 0.85
Cc1ccc(N=Cc2c(O)n(-c3ccc(C)cc3)c(=O)[nH]c2=O)cc1
  RGS16-Gao HTS: · | HSV replic up: i | HSV replic up primary fold: 0.91
CN(CC#CCN1CCCC1)C(=O)c1cccc(Cl)c1
  RGS16-Gao HTS: · | HSV replic up: i | HSV replic up primary fold: 0.59
COC(=O)C1=C(c2cc3ccccc3o2)C[C@@H]2CC[C@H]1N2C(=O)N1CCC(O)CC1
  RGS16-Gao HTS: · | HSV replic up: i | HSV replic up primary fold: 0.91
COC(=O)C1=C(c2cc3ccccc3o2)C[C@@H]2CC[C@H]1N2C(=O)NCc1ccc(F)cc1
  RGS16-Gao HTS: · | HSV replic up: i | HSV replic up primary fold: 0.73
C=CC12CN(C)[C@@H]3C4CO[C@H](C[C@H]41)[C@]1(C(=O)Nc4ccccc41)[C@@H]32 (some centres not stated)
  RGS16-Gao HTS: · | HSV replic up: i | HSV replic up primary fold: 0.93
COC(=O)C1=C(c2ccccc2)C[C@@H]2CC[C@H]1N2C(=O)NCc1ccco1
  RGS16-Gao HTS: · | HSV replic up: i | HSV replic up primary fold: 0.76
COC(=O)C1=C(c2cc3ccccc3o2)C[C@@H]2CC[C@H]1N2C(=O)NCCNC(C)=O
  RGS16-Gao HTS: · | HSV replic up: i | HSV replic up primary fold: 1
CCN1C[C@]2(COC)CC[C@H](O)[C@@]34C5C[C@@H]6[C@@H](OC)C[C@@](O)(C5[C@H]6O)[C@](O)([C@@H](OC)C23)[C@@H]14 (some centres not stated)
  RGS16-Gao HTS: · | HSV replic up: i | HSV replic up primary fold: 0.88

c1ccc([C@@H]2CO2)cc1
  RGS16-Gao HTS: · | HSV replic up: i | HSV replic up primary fold: 0.9
O=[N+]([O-])c1ccc2nc(N3CCNCC3)ccc2c1
  RGS16-Gao HTS: · | HSV replic up: i | HSV replic up primary fold: 0.71
Cn1c(O)c(C=Nc2ccc3c(c2)CCC3)c(=O)n(C)c1=O
  RGS16-Gao HTS: · | HSV replic up: i | HSV replic up primary fold: 0.86
COC(=O)C1=C(c2ccc(S(C)(=O)=O)cc2)C[C@@H]2CC[C@H]1N2C(=O)NCC1CC1
  RGS16-Gao HTS: · | HSV replic up: i | HSV replic up primary fold: 1
COC(=O)C1=C(c2cc3ccccc3s2)C[C@@H]2CC[C@H]1N2C(=O)NCCNC(C)=O
  RGS16-Gao HTS: · | HSV replic up: i | HSV replic up primary fold: 1
C[C@@H](N)Cc1cnc[nH]1
  RGS16-Gao HTS: · | HSV replic up: i | HSV replic up primary fold: 0.81
O=[N+]([O-])c1ccc(O)c([N+](=O)[O-])c1
  RGS16-Gao HTS: · | HSV replic up: i | HSV replic up primary fold: 0.84
C=C1[C@@H](OC(C)=O)[C@]23C[C@@H]1[C@@H](OC(C)=O)CC2[C@]12C4C[C@H]3[C@H]1N(CC)C[C@]4(C)CC[C@@H]2O (some centres not stated)
  RGS16-Gao HTS: · | HSV replic up: i | HSV replic up primary fold: 0.98

Filtered by structure: those above with sulfur.
COC(=O)C1=C(c2cc3ccccc3s2)C[C@@H]2CC[C@H]1N2C(=O)N1CCC(C)CC1
  RGS16-Gao HTS: · | HSV replic up: i | HSV replic up primary fold: 0.91
COC(=O)C1=C(c2ccc(S(C)(=O)=O)cc2)C[C@@H]2CC[C@H]1N2C(=O)N1CCC(O)CC1
  RGS16-Gao HTS: · | HSV replic up: i | HSV replic up primary fold: 0.83
COC(=O)C1=C(c2cc3ccccc3s2)C[C@@H]2CC[C@H]1N2C(=O)NCCS(C)=O (some centres not stated)
  RGS16-Gao HTS: · | HSV replic up: i | HSV replic up primary fold: 0.83
COC(=O)C1=C(c2cc3ccccc3s2)C[C@@H]2CC[C@H]1N2C(=O)N1CCC(O)CC1
  RGS16-Gao HTS: · | HSV replic up: i | HSV replic up primary fold: 0.94
COC(=O)C1=C(c2ccc(S(C)(=O)=O)cc2)C[C@@H]2CC[C@H]1N2C(=O)NCCS(C)=O (some centres not stated)
  RGS16-Gao HTS: · | HSV replic up: i | HSV replic up primary fold: 1.2
CN1C(=O)C2C[C@@]3(Br)c4ccccc4N(OOSc4ccccc4)[C@H]3N2C(=O)[C@@H]1Cc1ccccc1 (some centres not stated)
  RGS16-Gao HTS: · | HSV replic up: i | HSV replic up primary fold: 0.76
COC(=O)C1=C(c2ccc(S(C)(=O)=O)cc2)C[C@@H]2CC[C@H]1N2C(=O)NCC1CC1
  RGS16-Gao HTS: · | HSV replic up: i | HSV replic up primary fold: 1
COC(=O)C1=C(c2cc3ccccc3s2)C[C@@H]2CC[C@H]1N2C(=O)NCCNC(C)=O
  RGS16-Gao HTS: · | HSV replic up: i | HSV replic up primary fold: 1

An excerpt of these results, with bars between the fields.
structure | RGS16-Gao HTS | HSV replic up | HSV replic up primary fold
COC(=O)C1=C(c2cc3ccccc3s2)C[C@@H]2CC[C@H]1N2C(=O)NCCNC(C)=O | · | i | 1
C[C@@H](N)Cc1cnc[nH]1 | · | i | 0.81

The list is partial, so the mix of outcomes need not match the whole.
